LASV entry inh: Lassa virus entry inhibition. Lassa virus pseudotype entry inhibition, cell reporter; control for the full effect not named in the record. Potency, µM (series often up to 37.9 µM), without a hit: top-dose activity change, negative = inhibition, usual class: inhibitors. hit rate 1.2% among 300,000; active means well fitted inhibition curve with a large enough effect; inconclusive means small, poorly fitted or top-dose-only effect, or effect the other way; inactive means flat fitted curve, though single readings scatter; tested in HEK293 cells; also: % is scaled to controls: 0 for no effect and ±100 for the full control effect; nearly all actives have a fitted effect of over 50% in size; luciferase read-out
SARS PLP yeast: inhibitors of SARS-CoV papain-like protease in yeast; hit rate 0.19% among 330,000; AID 485353; Potency, µM (highest dose often 32.9 µM), without a hit: top-dose activity, positive = growth rescue; S. cerevisiae expressing SARS-CoV PLpro, growth rescue; control for the full effect not named in the record; also: 0% is about no effect; nearly all actives have a fitted effect of over 55% in size; growth read by luminescence after 48 h
Cruzain Triton: blocks cruzain activity in presence of Triton detergent | purified cruzain, Z-FR-AMC fluorescence, 0.01% Triton | Potency, µM, without a hit: max response, negative = inhibition, usual class: inhibitors | hit rate 0.43% among 200,000 | AID 1478; active = well fitted curve in the direction sought with a large enough effect; inconclusive = small, poorly fitted or top-dose-only effect, or another doubt; inactive = no such curve, though single readings can be large; an effect the other way counts as inactive or inconclusive;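 also: plate controls were neutral wells for no effect and buffer without enzyme for full effect; nearly all actives have a fitted effect of over 40% in size; top concentration of the series not given in the record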
Target sequence (P25779 123-467 limits assumed): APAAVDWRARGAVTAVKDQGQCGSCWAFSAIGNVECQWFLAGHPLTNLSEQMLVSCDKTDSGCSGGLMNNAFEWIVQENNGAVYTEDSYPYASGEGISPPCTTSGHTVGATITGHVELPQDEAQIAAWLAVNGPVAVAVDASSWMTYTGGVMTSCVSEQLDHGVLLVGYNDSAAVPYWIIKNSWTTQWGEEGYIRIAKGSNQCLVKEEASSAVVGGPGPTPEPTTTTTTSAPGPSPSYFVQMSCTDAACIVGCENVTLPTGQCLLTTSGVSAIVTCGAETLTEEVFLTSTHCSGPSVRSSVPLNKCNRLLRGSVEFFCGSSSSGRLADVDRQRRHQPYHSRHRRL
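Z-FR-AMC hydrolysis (2 uM substrate) by cruzain (1.5 nM) monitored kinetically at ex 360/em 450 nm after 15 min room-temperature compound exposure; 0.01% Triton X-100, pH 5.5, 5 mM DTT.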
RE007 growth inh: less growth of the S. pombe RE007 Vpr strain; S. pombe RE007 Vpr strain, BacTiter-Glo ATP luminescence, 24 h; control for the full effect not named in the record; Potency, µM (top dose mostly 92.2 µM), without a hit: at the top dose activity change, negative = less growth; hit rate 0.21% among 360,000; active = well fitted falling curve with a large enough effect; inconclusive = small, poorly fitted or top-dose-only effect; inactive = no such curve, though single readings can be large or run the other way;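 also: % is scaled to controls: 0 for no effect and ±100 for the full control effect; nearly all actives have a fitted effect of over 50% in size; the assay follows cell death caused by Vpr and the record does not say whether a fall means rescue or toxicity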
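Fission yeast strain RE007, carrying one chromosomally integrated HIV-1 vpr copy, was seeded at OD 0.01 in PMG+AL medium with 23 nL pinned compound. After 24 h at 30 °C and 99% humidity, viability was read by BacTiter-Glo luminescence.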
Cruzain inh noDet: inhibitors of Trypanosoma cruzi cruzain without detergent | purified cruzain, Z-FR-AMC fluorescence, no detergent | hit rate 2.3% among 200,000 | AID 1476 | Potency, µM, inactives show max response, negative = inhibition, hits mostly inhibitors | P25779; active = well fitted curve in the direction sought with a large enough effect; inconclusive = small, poorly fitted or top-dose-only effect, or another doubt; inactive = no such curve, though single readings can be large; an effect the other way counts as inactive or inconclusive;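 also: plate controls were enzyme without inhibitor for no effect and buffer without enzyme for full effect; nearly all actives have a fitted effect of over 40% in size; top concentration of the series not given in the record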
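Purified cruzain at 1.5 nM, pre-incubated 15 min with compound at room temperature in 100 mM sodium acetate pH 5.5, 5 mM DTT, 0.00005% Triton X-100. Reaction started with 2 uM Z-FR-AMC; AMC fluorescence increase over 60 s gives rate.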
NS1 inh: blocks influenza NS1 protein function; AID 2326; hit rate 0.4% among 270,000; Potency, µM (highest dose often 46.1 µM), inactives show at the highest dose activity, positive = more growth; S. cerevisiae slowed by influenza A NS1, growth recovery by OD600; also: actives are rising curves; nearly all actives have a fitted effect of over 50% in size
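Read-out: OD600 growth recovery of NS1-expressing budding yeast. Cells grown overnight at 30C in -URA glucose medium, washed, resuspended and diluted 1:100 in 2% galactose assay medium, pH 6.0. Same strain lacking NS1 served as positive control.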
StopGo reporter: FMDV 2A StopGo reporter, luciferase signal. human cells with a luciferase reporter of 2A StopGo recoding; control for the full effect not named in the record. Potency, µM (highest dose often 57.9 µM), without a hit: at the highest dose signal change, negative = less light. hit rate 1.2% among 410,000. AID 1159524; active = well fitted falling curve with a large enough effect; inconclusive = small, poorly fitted or top-dose-only effect; inactive = no such curve, though single readings can be large or run the other way; tested in HEK293T cells; also: % is scaled to controls: 0 for no effect and ±100 for the full control effect; nearly all actives have a fitted effect of over 45% in size; luciferase light after 4 h
Marburg entry inh: blocks Marburg virus binding to or entry into cells. Marburg virus pseudotyped entry inhibition, cell reporter; control for the full effect not named in the record; about a third of the inactives were read at about 46 µM. Potency, µM (doses to about 37.8 µM), for the others: top-dose activity change, negative = inhibition, actives largely listed as inhibitors. hit rate 1.8% among 300,000; active = well fitted inhibition curve with a large enough effect; inconclusive = small, poorly fitted or top-dose-only effect, or effect the other way; inactive = flat fitted curve, though single readings scatter; tested in HEK293 cells; about a fifth of its hits are not listed in these tables; also: % is scaled to controls: 0 for no effect and ±100 for the full control effect; luciferase read-out
The depositor's hits bear a star; ? = inconclusive; · = not tested or not shown; & = joins results of further samples; [ ] = dose if it differs, or a comment. Unless noted, calls follow the shape of the dose curve; as a rule, active means well fitted rising curve with a large enough effect; inconclusive means small, poorly fitted or top-dose-only effect; inactive means no such curve, though single readings can be large or run the other way. Potency is read from the fitted curve at half-maximal effect. Rows were taken by chance; about 4.7% have a hit in one of these screens.

SMILES,LASV entry inh,SARS PLP yeast,Cruzain Triton,RE007 growth inh,Cruzain inh noDet,NS1 inh,StopGo reporter,Marburg entry inh
Cc1c(OCC(=O)N2CCC(C(=O)NCCCC(=O)O)CC2)ccc2c1oc(=O)c1ccccc12,·,5%,·,3%,·,-12%,-3%,·
O=C(COc1ccc(N2CC(C(=O)O)CC2=O)cc1)Nc1cccc(C(F)(F)F)c1 (centres undefined),-2%,4%,3.6%,-12%,7%,?,-4%,17%
O=C(NCC1CCCCC1)c1ccccc1[N+](=O)[O-],4%[46.1 µM],0%,·,35%,·,0%,10%,3%[46.1 µM]
CCC(c1nnnn1C1CCCC1)N(Cc1cccs1)Cc1cc2cc(C)ccc2[nH]c1=O (centres undefined),?,-1%,-4.1%,-16%,-8%,7%,0%,?
Cc1cc(NC(=O)CN2C(=O)NC(C)(c3ccc(OC(F)F)cc3)C2=O)no1 (centres undefined),20%,6%,1.8%,27%,2%,-1%,-17%,0%[46.1 µM]
O=C(NC(=S)N1CCN(Cc2ccc3c(c2)OCO3)CC1)c1ccc(Cl)cc1,1%,-7%,7.3%,-19%,7%,-28%,0%,?
Cn1nc(-c2ccc(OCC(=O)Nc3ccccc3)cc2)c2ccccc2c1=O,?,4%,-5.2%&-2.0%,5%[3.69 µM],22%&13%,-49%,?,0%[46.1 µM]
Cn1cc(CNC(=O)COc2ccc(Cl)cc2Cl)cn1,-2%,0%,3.4%,-4%,12%,6%,9%,-1%
Cc1sc(NC(=S)NC(=O)c2cccs2)nc1-c1ccc(C(C)C)cc1,16%,3%,0.4%,4%,10µM*,8%,13%,-9%
Cc1ccc(Cl)cc1NC(=O)CSc1nc2c(c(=O)[nH]1)CN(Cc1ccccc1)CC2,-9%[46.1 µM],·,-6.3%,·,20%,·,-23%,-25%[46.1 µM]
CCc1ccccc1-n1nnc(-c2nsc(NC(=O)c3ccc(C)c(C)c3)n2)c1C,?,·,-2.3%,·,-25%,·,11µM*,·
COc1ccc(/C=C/C(=O)Nc2sc3c(c2C(=O)NCc2cccnc2)CCCC3)cc1,-27%,-1%,-1.7%,1%[3.69 µM],2%,13%,13%,?
CCOC(=O)CSc1nc2ccccc2c(=O)n1CCC(=O)NCCc1ccc(OC)c(OC)c1,-9%,-1%,0.5%,-8%,?,-1%,-16%,-12%
O=C(Nc1ccccc1[N+](=O)[O-])c1csnn1,-3%[46.1 µM],·,-7.3%,·,-15%,·,34%[activator],13%[46.1 µM]
Cc1ccc2sc(NNC(=O)c3ccc4c(c3)OCCO4)nc2c1C,1%,-1%,-2.3%,1%,?,15%,-4%,8%
Cc1cc(C)n(CCc2nc3c4ccccc4nc(N4CCN(c5cccc(C)c5C)CC4)n3n2)n1,·,·,0.6%,·,8%,·,-6%,3%[46.1 µM]
CCOc1cc(/C=N/Nc2nc(N3CCCC3)nc(N3CCCC3)n2)ccc1O,-16%,12%,-9.4%,-7%,0%,19%,-22%,?
CC(C)(C)C(=O)NCCN1C(=O)S/C(=C\c2ccc([N+](=O)[O-])cc2)C1=O,1%,-1%,-8.1%,-19%,6%,-4%,?,?
Cn1c(C2CCCCC2)nc2cc(N)ccc21,·,-1%,·,-15%,·,0%,5%,·
O=C(O)C(c1ccccc1)N1C(=O)/C(=C\c2ccc(O)c(O)c2)SC1=S (centres undefined),·,0%,·,-16%,·,0%,?,·
COCc1c(C(=O)N/N=C\c2ccccn2)nnn1-c1nonc1N,?,3%,·,-7%,·,6%,-20%,-12%[46.1 µM]
CCOC(=O)C1CCCN(C(=O)Cn2ncc3c4ccccc4n(Cc4ccc(F)cc4)c3c2=O)C1 (centres undefined),?,·,-14%,·,?,·,-16%,?
O=C(Nc1c(C(=O)N2CCOCC2)oc2ccccc12)c1ccccc1Cl,?,0%,·,-9%,·,-22%,-8%,3%[46.1 µM]
Cc1ccc(-c2n[nH]c(=S)c3ccccc23)cc1S(=O)(=O)NCC1CCCO1 (centres undefined),9%[46.1 µM],1%,·,-1%,·,-1%,-8%,-17%[46.1 µM]
O=C1CCc2ccccc2O1,·,1%,3.9%,-4%,5%,·,1%,·
Cc1ccc(N(C)S(=O)(=O)c2ccc3c(c2)C(C)(C)C(=O)N3C)cc1C,?,·,-2.8%,·,29%,·,19%,·
Cc1nnn(C23CC4CC(CC(CC(=O)Nc5ccc(C)c(C)c5)(C4)C2)C3)n1,-5%,-4%,-5.9%,-16%,-9%,-3%,-7%,-10%
N#C/C(=C\Nc1ccccn1)S(=O)(=O)c1ccc(Cl)cc1,-16%[46.1 µM],0%,·,-6%,·,7%,25%,-6%[46.1 µM]
CCOc1ccc(NC(=O)CS(=O)(=O)c2cn(CC)c3ccccc23)cc1,·,-6%,-4.7%,-6%,1%,-5%,?,·
O=C(C1CCN(c2nnc(-n3cccc3)s2)CC1)N1CCc2ccccc2C1,·,-44%,-3.8%,-20%,-16%,-31%,?,·
COCCOCC(=O)Nc1ccc(S(=O)(=O)Nc2cc(C)nc(C)n2)cc1,·,-6%,·,-3%,·,2%,32%[activator],·
O=C(C1CC1)N1CCc2cc(S(=O)(=O)N3CCCc4ccccc43)ccc21,?,-2%,-3.5%,8%,3%,6%,0%,-8%[46.1 µM]
O=C(O)C1C2CC3CC(C2)CC1(n1ncc(N2CCC4(CC2)OCCO4)c(Cl)c1=O)C3 (centres undefined),-10%,1%,·,7%,·,-5%,-3%,1%[46.1 µM]
COc1ccccc1C1CCN(C(=S)Nc2ccc(Br)cc2)CC1,7%[46.1 µM],-1%,·,-29%,·,0%,21%,-18%[46.1 µM]
Cc1ccccc1N=Nc1c(O)n(C)c2ccccc12,·,-11%,·,-7%,·,0%,1%,·
O[C@@H]1C2CCCC1[C@]1(O)CCCCC1C2 (some centres undefined),0%,3%,6.9%,2%,-9%,-1%,-22%,13%
O=S(=O)(Nc1cc(F)ccc1F)c1ccc2[nH]c3c(c2c1)CCCCC3,4%[46.1 µM],·,-13%,·,?,·,43%[activator],·
CCOc1ccc(-n2c(C)nc(O)c2N=Nc2ccccc2)cc1,12%,-1%,·,19%,·,·,-3%,?
CSc1nc(C)c2c(c1C#N)CCCC2,9%,-4%,1.3%,?,-1%,-99%,?,-10%
Cc1ccc(O)c(C(=O)c2cnn(-c3ccccc3)c2)c1,0%,-5%,-1.9%,?,-3%,-6%,4%,?
CNC(=O)c1[nH]cnc1C(=O)Nc1ccc(C)cc1,·,-14%,-1.5%,4%,-12%,-3%,30%,·
CCOC(=O)c1c(NC(=O)COc2ccc(F)cc2)sc2c1CCC(C)C2 (centres undefined),28%[46.1 µM],·,-7.6%,·,1%,·,-25%,·
Cc1ccc2c(c1)c1nc3ccccc3nc1n2CCN1CCOCC1,?,-1%,-4.3%,-10%,28%,9%,5%,-22%
CC(Oc1ccc(C(=O)NCCc2ccccc2)cc1)C(=O)O (centres undefined),-15%,-6%,4.6%,10%,-5%,1%,14%,11%
CCc1ccc(-n2c(=O)c3ccccc3n3c(=S)[nH]nc23)cc1,·,0%,·,18%,·,4%,-11%,·
Cc1cc(C)c([N+](=O)[O-])cc1-c1ccc(/C=N/c2c(-c3ccco3)nc3ccccn23)o1,1%,-5%,-19%,-30%,-21%,-17%,-8%,27%
O=C(Cn1cnc2c(cnn2-c2ccc(Cl)cc2)c1=O)NCC1CCCO1 (centres undefined),-11%,3%,-2.0%,3%,-5%,6%,?,8%
COc1ccc2c(CNCc3ccco3)c(C(=O)O)n(Cc3ccccc3)c2c1,-1%[46.1 µM],·,-2.9%,·,-6%,·,0%,·
O=C(Cn1c(-c2cccs2)cc2cc(F)ccc21)NCCc1ccc(Cl)cc1,12%[46.1 µM],·,-1.9%,·,13µM*,·,-12%,?
O=C(NCCc1cccc(Cl)c1)c1cccs1,-8%[46.1 µM],-4%,·,-4%,·,-45%,7%,?

(more compounds)
SMILES,LASV entry inh,SARS PLP yeast,Cruzain Triton,RE007 growth inh,Cruzain inh noDet,NS1 inh,StopGo reporter,Marburg entry inh
CC(C)Oc1cccc(NC(=O)c2cccn(Cc3ccc4c(c3)OC(F)(F)O4)c2=O)c1,-30%,0%,-6.7%,21%,10%,16%,-13%,?
C=CCn1ccc(O)c(Cc2ccc(Cl)cc2)c1=O,7%[46.1 µM],3%,·,8%,·,-3%,-11%,15%[46.1 µM]
Cn1c(=S)n(CCC(=O)O)c2ccccc21,2%,-2%,·,0%,·,5%,-12%,-5%[46.1 µM]
Cc1cnc(NC(=O)CCN2C(=O)C3CCCCC3C2=O)s1 (centres undefined),14%,1%,·,-3%,·,2%,-5%,-15%[46.1 µM]
COc1ccc(OC)c(-n2cnc3cc(C(=O)NCCc4ccccc4)ccc32)c1,7%[46.1 µM],·,-2.5%,·,-2%,·,32%[activator],·
Cc1ccc(NC(=O)NC(=O)COc2ccc(Cl)cc2Cl)c(C)c1,27%,-6%,0.2%,-25%,13µM*,4%,-11%,22%
Cc1ccc(CS(=O)(=O)Cc2ccc(C(=O)NCCCN3CCOCC3)o2)cc1,5%,-5%,-0.8%,-12%,0%,-6%,·,18%
CC(C)(C)c1csc(NC(=O)CCc2ccccc2)n1,·,-8%,·,?,·,-64%,-17%,·
CN1CCN(C(=O)c2ccc3c(c2)NC(=O)C(C)(C)O3)CC1,0%,-10%,1.4%,12%,-6%,-2%,1%,-6%
C/C(=N\NC(=O)c1cccc(S(=O)(=O)N2CCOCC2)c1)c1ccc(OCC(=O)N(C)C)cc1,-1%,-5%,·,-18%,·,·,-20%,-21%
O=C(NN1C(=O)C2C(C1=O)C1C=CC2C12CC2)c1cccc(Cl)c1 (centres undefined),-12%[46.1 µM],0%,·,-4%,·,0%,7%,0%[46.1 µM]
CCN(CC)P(=S)(c1c(C)nc2ccccn12)c1c(C)nc2ccccn12,·,1%,·,-12%,·,-2%,-40%,·
Cc1ccc2nc(SCC(=O)N3CCN(c4ccccc4)CC3)nc(=O)n2c1,-10%,-1%,·,-4%,·,·,-23%,20%[46.1 µM]
